DUX4 txn inh = DUX4-mediated transcription inhibition | 293T-iDUX4 ZSCAN4-Gaussia luciferase reporter, 24 h; stronger effect = lower value | 37,000 compounds, 0.8% hits | activity change, negative = inhibition, % (concentration not given with the values);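 active = -10% or lower and over 25 points stronger than a control reporter; inconclusive = -10% or lower with a smaller gap; inactive = above -10%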;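 note: 0% = median of neutral control wells and -100% = median of positive control wells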
DUX4 txn inh difference = second read-out of DUX4 txn inh, no call of its own (marks repeat the call); Gaussia minus Italica difference, %; measured here: selective DUX4 reporter inhibition;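 worked out from the two reporters; negative = selective loss of the DUX4 reporter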
DUX4 txn inh control = further read-out of DUX4 txn inh, marked with its call; activity change, negative = inhibition, %; measured here: Italica tet-on control reporter;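 0 = neutral control and -100 = positive control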
An asterisk follows results filed as active; u = inconclusive; x = not tested or not shown. An excerpt, so the mix of outcomes need not match the whole.

entry	compound	DUX4 txn inh	DUX4 txn inh difference	DUX4 txn inh control
1	C[C@H]1CN([C@@H](C)CO)C(=O)c2ccccc2-c2ccccc2CO[C@H]1CN(C)Cc1ccc2c(c1)OCO2	2	1	1.1
2	CCC(=O)N1CC(=O)N2[C@@H](CO)[C@H](c3ccc(-c4ccncc4)cc3)[C@@H]2C1	7	1	6.6
3	CC[C@@H]1C/C=C\C[C@H](c2ccc(OC)cc2OC)NC(=O)[C@@H](C)CC(=O)N1	-4	-4	-0.2
4	COc1ccc2c3c(n(C)c2c1)[C@@H](CO)N(CC1CC1)CC31CN(S(=O)(=O)c2cn(C)cn2)C1	5	-8	13
5	O=C(c1cccc(F)c1)N1CC(=O)N2[C@H](CO)[C@@H](c3ccc(-c4ccccc4)cc3)[C@H]2C1	-1	-13	12
6	O=C(Nc1ccc(F)cc1)N1CC(=O)N2[C@@H](CO)[C@@H](c3ccc(C#CC4CC4)cc3)[C@@H]2C1	-3	3	-5.7
7	CN(C)C(=O)[C@H]1[C@H](CO)[C@H]2Cn3c(ccc(C4=CCCCC4)c3=O)[C@H]2N1Cc1ccccn1	0	-4	4.0
8	Cc1ccc(-c2ccc([C@@H]3[C@@H](CO)N4CCCCN(S(=O)(=O)c5ccccc5C)C[C@H]34)cc2)cc1	-25*	-27*	2.0*

Reprinted at random: four records from the list
entry	compound	DUX4 txn inh	DUX4 txn inh difference	DUX4 txn inh control
7	CN(C)C(=O)[C@H]1[C@H](CO)[C@H]2Cn3c(ccc(C4=CCCCC4)c3=O)[C@H]2N1Cc1ccccn1	0	-4	4.0
3	CC[C@@H]1C/C=C\C[C@H](c2ccc(OC)cc2OC)NC(=O)[C@@H](C)CC(=O)N1	-4	-4	-0.2
6	O=C(Nc1ccc(F)cc1)N1CC(=O)N2[C@@H](CO)[C@@H](c3ccc(C#CC4CC4)cc3)[C@@H]2C1	-3	3	-5.7
4	COc1ccc2c3c(n(C)c2c1)[C@@H](CO)N(CC1CC1)CC31CN(S(=O)(=O)c2cn(C)cn2)C1	5	-8	13

The listing continues.
entry	compound	DUX4 txn inh	DUX4 txn inh difference	DUX4 txn inh control
9	O=C(C[C@H]1CC[C@@H]2[C@H](COC[C@@H](O)CN2S(=O)(=O)c2cccc(Cl)c2)O1)Nc1ccc(-c2ccccc2)cc1	u	x	x
10	COc1ccc(S(=O)(=O)Nc2cccc3c2O[C@H](CN(C)CC2CCCCC2)[C@@H](C)CN([C@@H](C)CO)C3=O)cc1	-4	-1	-2.7
11	C[C@@H]1CN([C@@H](C)CO)C(=O)c2cc(C#CC3CC3)cnc2O[C@H]1CN(C)C(=O)c1ccc(F)cc1	-6	-4	-2.5
12	C[C@H](NC(=O)[C@@H]1[C@@H](CO)[C@@H]2Cn3c(cccc3=O)[C@H]1N2C(=O)C1CCC1)c1ccccc1	2	0	2.4
13	C[C@H](O)C#Cc1ccc([C@@H]2[C@@H](CO)N3CCCCN(S(=O)(=O)c4ccccc4)C[C@H]23)cc1	8	13	-5.6
14	CN(C[C@H]1[C@@H](c2ccccc2)[C@H](CO)N1Cc1ccccn1)S(C)(=O)=O	0	1	-0.4
15	COc1ccc2c3c(n(C)c2c1)[C@@H](CO)N(C(=O)CN1CCOCC1)CC31CCN(C)CC1	0	-7	7.3
16	N#C[C@@H]1[C@@H](c2ccccc2C2=CCCC2)[C@H](CO)N1C(=O)CN1CCOCC1	18	11	6.4
17	CNC[C@H]1Oc2ccc(NC(=O)NC3CCCCC3)cc2CC(=O)N([C@H](C)CO)C[C@@H]1C	-4	-5	1.7
18	COc1ccccc1CN1[C@H](CO)[C@H]2c3ccccc3N(C(=O)c3cccnc3)C[C@H]21	3	0	3.1
19	COc1ccccc1NC(=O)N[C@@H]1CC[C@H](CCNC(=O)c2ccc3c(c2)OCO3)O[C@@H]1CO	2	4	-1.5
20	COc1cccc(-c2ccc([C@@H]3[C@@H](CO)N4C(=O)CNC[C@H]34)cc2)c1	8	12	-4.0
21	COC(=O)C[C@H]1CC[C@H]2[C@@H](COc3ccc(NS(=O)(=O)c4ccccc4Cl)cc3C(=O)N2C)O1	4	2	1.9
22	CN1c2ccc(C#Cc3cccnc3)cc2[C@@H]2[C@@H](CCN2S(=O)(=O)c2ccccc2)[C@H]1CO	u	x	x
23	CNC(=O)C[C@H]1CC[C@H]2[C@@H](COc3ccc(NC(=O)NC4CCCC4)cc3C(=O)N2C)O1	6	7	-1.1
24	O=C(C[C@H]1CC[C@@H]2[C@H](COC[C@H](O)CN2C(=O)Nc2ccc(Cl)cc2)O1)NCCc1ccncc1	13	-1	14
25	COc1ccc(C#Cc2ccc3c(c2)O[C@H](CN(C)C(=O)NC2CCCCC2)[C@@H](C)CN([C@@H](C)CO)S3(=O)=O)cc1	-3	-3	0.1
26	O=C(C[C@@H]1CC[C@H]2[C@@H](COC[C@H](O)CN2C(=O)Nc2cccc(F)c2)O1)NCCCN1CCOCC1	5	0	4.7
27	C[C@@H]1CN([C@@H](C)CO)C(=O)CCCn2nncc2CO[C@H]1CN(C)C(=O)c1ccc(N2CCN(C)CC2)cc1	4	-2	5.8
28	CC(=O)NC[C@@H]1[C@@H](c2ccccc2)[C@H](CO)N1C(=O)Cc1cccnc1	0	1	-1.0
29	CCCN1C[C@@H](C)[C@H](OC)CN(C)C(=O)c2cc(NC(=O)C3CCC3)ccc2OC[C@@H]1C	-4	-5	0.6
30	Cn1cnc(S(=O)(=O)N2C[C@H](O)COC[C@H]3O[C@H](CC(=O)NC4CCC4)CC[C@@H]32)c1	0	-5	5.1
31	C[C@H]1CN([C@@H](C)CO)C(=O)c2cc(NC(=O)CCN3CCOCC3)ccc2O[C@@H]1CN(C)CC1CCCCC1	1	3	-2.0
32	CC(C)(C)[S@@](=O)N1Cc2cc(C(=O)N3CCCCC3)nc(-c3cccc(-c4cccc(C#N)c4)c3)c2[C@H]1CCO	-1	0	-0.8
33	CS(=O)(=O)N1[C@H](C#N)[C@H](c2ccc(C#Cc3cccc(F)c3)cc2)[C@H]1CO	1	0	0.9
34	C[C@@H]1CN([C@H](C)CO)C(=O)c2cc(NS(=O)(=O)c3ccc(F)cc3)ccc2O[C@@H](C)CCCCO[C@@H]1CN(C)C(=O)c1ccccc1	0	-1	0.6
35	O=C(C[C@@H]1C[C@H]2c3cc(NC(=O)C4CCC4)ccc3O[C@H]2[C@@H](CO)O1)NCC1CC1	7	7	0.4
36	COc1ccc2c3c(n(C)c2c1)[C@@H](CO)N(C(=O)C1CCC1)CC31CN(C)C1	7	-6	13
37	COc1ccccc1NC(=O)N[C@@H]1CC[C@@H](CC(=O)N[C@H](C)c2ccccc2)O[C@H]1CO	2	2	0.2
38	O=C(c1ccccc1)N1C[C@@H]2[C@H](c3ccccc31)[C@@H](CO)N2Cc1cc(F)ccc1F	-2	-6	4.3
39	C[C@@H]1CCCCO[C@H](CN(C)S(=O)(=O)c2cn(C)cn2)[C@H](C)CN([C@H](C)CO)C(=O)c2cc(N(C)C)ccc2O1	3	-3	6.0
40	C[C@@H]1CN([C@H](C)CO)S(=O)(=O)c2ccc(C#Cc3ccccn3)cc2O[C@@H]1CN(C)Cc1cccc(F)c1	-1	0	-0.9
41	O=C(c1ccc(F)cc1)N1CC(=O)N2[C@H](CO)[C@H](c3ccc(-c4cccnc4)cc3)[C@@H]2C1	-3	-3	-0.1
42	CO[C@H]1CN(C)C(=O)c2cccc(C#N)c2OC[C@H]2O[C@@H](CC[C@H]2OC)CCN(C)C(=O)[C@@H]1C	5	2	2.6
43	N#C[C@@H]1[C@@H](c2ccc(C#CC3CCCCC3)cc2)[C@H](CO)N1C(=O)Nc1ccc(F)cc1	-1	1	-2.2
44	O=C(C[C@H]1C[C@H]2c3cc(NC(=O)Cc4ccncc4)ccc3O[C@H]2[C@H](CO)O1)NCc1cc(F)ccc1F	-36*	-34*	-1.5*
45	O=C(NC1CCC1)[C@@H]1[C@@H](CO)[C@@H]2Cn3c(ccc(C4=CCCCC4)c3=O)[C@@H]2N1C(=O)C1CCOCC1	-5	-1	-4.3
46	O=C(C[C@@H]1CC[C@H]2[C@@H](COC[C@@H](O)CN2Cc2cc(F)ccc2F)O1)NCc1ccc(Cl)cc1	u	x	x
47	C/C=C/c1cccc(-c2nc(C(=O)N(C)C)cc3c2[C@H](CCO)N([S@@](=O)C(C)(C)C)C3)c1	4	-2	5.7
48	Cc1cccc(S(=O)(=O)N2CC[C@@H]3[C@@H](CO)Nc4ccc(C#Cc5cccnc5)cc4[C@@H]32)c1	u	x	x
49	C[C@@H]1CN([C@@H](C)CO)C(=O)CCCn2cc(nn2)CO[C@H]1CN(C)C(=O)c1ccncc1	4	3	1.3
50	O=C(c1ccccn1)N1CC[C@@H]2[C@@H](CO)Nc3ccc(-c4cccc(F)c4)cc3[C@@H]21	8	10	-1.4
51	CN(C)C(=O)c1ccc(-c2ccc3c(c2)[C@@H]2[C@@H](CCN2C(=O)c2ccc(F)cc2)[C@H](CO)N3C)cc1	u	x	x
52	COC(=O)[C@@H]1[C@@H](CO)[C@@H]2Cn3c(ccc(-c4ccc(OC)cc4)c3=O)[C@@H]2N1S(C)(=O)=O	-2	-1	-1.8
53	C[C@H]1CN([C@@H](C)CO)C(=O)c2cccc(NS(=O)(=O)c3cn(C)cn3)c2O[C@H]1CN(C)Cc1ccc(Oc2ccccc2)cc1	2	-1	2.7
54	COCCNC(=O)C[C@@H]1C[C@@H]2c3cc(NS(=O)(=O)c4ccccc4)ccc3O[C@@H]2[C@H](CO)O1	1	-3	3.7
55	Cc1cccc(S(=O)(=O)N2CC[C@@H]3[C@@H](CO)Nc4ccc(C#Cc5cccc(F)c5)cc4[C@@H]32)c1	0	-8	7.3
56	O=C(c1cccc(F)c1)N1CC(=O)N2[C@H](CO)[C@@H](c3ccc(C#Cc4ccc(F)cc4)cc3)[C@H]2C1	1	8	-6.6
57	Cc1cccc(-c2ccc([C@@H]3[C@@H](CO)N4CCCCN(CCC(F)(F)F)C[C@@H]34)cc2)c1	-56*	-46*	-9.3*
58	CCC(=O)N1C[C@H](C)[C@H](OC)CN(C)C(=O)c2cc(NC(=O)C3CC3)ccc2OC[C@H]1C	0	-2	2.7
59	C/C=C/c1ccc([C@H]2[C@@H](C#N)N(C(=O)Cc3ccccn3)[C@H]2CO)cc1	-5	-3	-2.6
60	CO[C@@H]1CN(C)C(=O)c2ccc(NC(=O)c3cnccn3)cc2OC[C@@H](C)N(C(=O)C2CC2)C[C@@H]1C	1	-4	4.9
61	O=C([C@@H]1N[C@@H]2c3ccc(C4=CCCCC4)c(=O)n3C[C@@H]2[C@H]1CO)N1CCc2ccccc2C1	-8	-6	-2.4
62	CO[C@H]1CN(C)C(=O)c2ccc(NC(=O)c3ccccc3F)cc2OC[C@H](C)N(C)C[C@@H]1C	1	4	-2.3
63	C[C@@H]1CN([C@@H](C)CO)C(=O)c2cc(N(C)C)ccc2O[C@@H](C)CCCCO[C@@H]1CN(C)Cc1ccc(C(=O)O)cc1	0	-4	3.6
64	CCCN1[C@@H]2c3ccc(-c4cccnc4)c(=O)n3C[C@H]1[C@H](CO)[C@H]2C(=O)NC1CCCC1	8	7	1.5

(listing goes on)
entry	compound	DUX4 txn inh	DUX4 txn inh difference	DUX4 txn inh control
65	Cc1noc(C)c1S(=O)(=O)N(C)C[C@@H]1OCc2ccccc2-c2c(n(C)c3ccccc23)C(=O)N([C@H](C)CO)C[C@H]1C	-6	-11	5.0
66	C[C@@H]1CC=CC[C@@H](c2ccccc2)NC(=O)[C@H](C)N(C)C(=O)c2ccccc2O1 (mixture of isomers)	1	0	0.7
67	C[C@H](CO)N1C[C@H](C)[C@@H](CN(C)C(=O)Nc2ccc(C(F)(F)F)cc2)Oc2ccc(NC(=O)CCCCCC(=O)Nc3ccccc3N)cc2C1=O	1	-2	3.2
68	COc1cccc(CNC(=O)[C@@H]2[C@@H](CO)[C@@H]3Cn4c(ccc(C5=CCCC5)c4=O)[C@@H]3N2CC2CC2)c1	-2	2	-4.3
69	COc1ccccc1C#Cc1cnc2c(c1)C(=O)N([C@H](C)CO)C[C@H](C)[C@@H](CN(C)S(=O)(=O)c1cn(C)cn1)O2	3	-2	5.0
70	COc1cccc(C(=O)Nc2ccc3c(c2)C(=O)N(C)[C@H]2CC[C@H](CC(=O)NCC(F)(F)F)O[C@@H]2CO3)c1	0	-3	3.4
71	COCC(=O)N1[C@H](CO)[C@@H](c2ccc(-c3ccccc3)cc2)C12CN(C(C)=O)C2	3	-1	3.8
72	COc1ccc(-c2ccc3c(c2)[C@@H]2[C@@H](CCN2C(=O)Cc2cccnc2)[C@@H](CO)N3C)cc1	-5	0	-4.9

A different layout for two compounds above:
[72] COc1ccc(-c2ccc3c(c2)[C@@H]2[C@@H](CCN2C(=O)Cc2cccnc2)[C@@H](CO)N3C)cc1
[67] C[C@H](CO)N1C[C@H](C)[C@@H](CN(C)C(=O)Nc2ccc(C(F)(F)F)cc2)Oc2ccc(NC(=O)CCCCCC(=O)Nc3ccccc3N)cc2C1=O

screen / no. | 72 | 67
DUX4 txn inh | -5 | 1
DUX4 txn inh difference | 0 | -2
DUX4 txn inh control | -4.9 | 3.2

Other records
entry	compound	DUX4 txn inh	DUX4 txn inh difference	DUX4 txn inh control
73	Cc1noc(C)c1S(=O)(=O)N(C)C[C@@H]1OCCCC[C@@H](C)Oc2ccc(NC(=O)CCC(F)(F)F)cc2C(=O)N([C@H](C)CO)C[C@@H]1C	6	1	4.1
74	COc1ccc(NC(=O)Nc2ccc3c(c2)C(=O)N([C@H](C)CO)C[C@@H](C)[C@@H](CN(C)S(=O)(=O)c2cccs2)OCCCC[C@@H](C)O3)cc1	-2	0	-1.1
75	CCCNC(=O)N1[C@H](C#N)[C@@H](c2ccccc2-c2ccccc2F)[C@@H]1CO	-3	3	-5.7
76	O=C(CN1CCOCC1)N1CCCCN2[C@H](CO)[C@@H](c3ccc(-c4ccccc4F)cc3)[C@@H]2C1	11	2	8.7
77	N#C[C@@H]1[C@H](c2ccc(C#Cc3ccc(F)cc3)cc2)[C@@H](CO)N1C(=O)Nc1ccc(F)cc1	u	x	x
